# Bioassay records from PubChem BioAssay.
# Mtb MbtI inh: inhibitors of Mycobacterium tuberculosis siderophore enzyme MbtI; P9WFX0; purified MbtI enzyme, fluorescence intensity read-out; inhibition, %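 (about 17 µg/mL by stock and volumes)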; 0.89% of 100,000 active;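 active = above 50% in both replicates, above 80% if mildly self-fluorescent; inactive = the rest, strongly fluorescent compounds included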;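 note: 0% = mean of negative and 100% = mean of positive controls; one replicate is shown; some compounds called inactive have numbers as strong as hits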
# Target sequence (P9WFX0 whole entry, looked up): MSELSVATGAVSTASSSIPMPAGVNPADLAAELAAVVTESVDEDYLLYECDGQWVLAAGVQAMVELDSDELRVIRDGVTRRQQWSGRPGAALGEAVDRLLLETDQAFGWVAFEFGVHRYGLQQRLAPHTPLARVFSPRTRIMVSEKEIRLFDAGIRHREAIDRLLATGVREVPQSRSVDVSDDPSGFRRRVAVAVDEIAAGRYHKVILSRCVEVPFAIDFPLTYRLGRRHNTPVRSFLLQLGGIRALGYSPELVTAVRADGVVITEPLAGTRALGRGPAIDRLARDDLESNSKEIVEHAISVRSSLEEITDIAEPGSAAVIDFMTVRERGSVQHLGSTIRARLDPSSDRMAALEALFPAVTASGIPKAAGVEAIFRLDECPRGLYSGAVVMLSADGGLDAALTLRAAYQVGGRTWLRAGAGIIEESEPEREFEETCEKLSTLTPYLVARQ
# PV pol inh: poliovirus RNA polymerase inhibition. poliovirus polymerase elongation, fluorescence polarization; stronger effect = lower value. % elongation, % (compound at 16.7 µg/mL). 0.66% of 150,000 active; in the data active = % elongation below about 90%; note: some results filed as inactive read as strong as hits
# Target sequence (P03300 1749-2209 limits assumed): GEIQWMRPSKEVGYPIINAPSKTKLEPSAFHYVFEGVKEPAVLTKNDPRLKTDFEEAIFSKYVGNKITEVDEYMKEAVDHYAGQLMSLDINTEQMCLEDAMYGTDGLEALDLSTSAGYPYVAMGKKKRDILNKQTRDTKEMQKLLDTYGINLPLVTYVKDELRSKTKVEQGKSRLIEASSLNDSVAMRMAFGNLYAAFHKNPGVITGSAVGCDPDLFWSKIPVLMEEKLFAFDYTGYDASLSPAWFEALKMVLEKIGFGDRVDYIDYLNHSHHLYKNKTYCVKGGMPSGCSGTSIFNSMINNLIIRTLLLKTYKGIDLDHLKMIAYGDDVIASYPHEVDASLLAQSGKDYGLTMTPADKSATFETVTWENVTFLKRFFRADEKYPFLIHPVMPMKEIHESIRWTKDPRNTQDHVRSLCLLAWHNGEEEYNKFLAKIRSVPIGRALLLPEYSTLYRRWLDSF
# Mtb MenB inh: blocks the Mycobacterium tuberculosis MenB enzyme; P9WNP5; MenB enzyme assay, absorbance read-out; some hits fall short of the stated cut; inhibition, %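 (about 12 µg/mL by stock and volumes)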; 0.43% of 100,000 active; AID 540299;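 active = mean of two replicates above 30%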;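 note: 0% = no compound and 100% = wells with inactive enzyme; the first replicate is given; strong numbers were not always called active; inactives centre near -10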
# PV pol inh intensity: further read-out of PV pol inh, marked with its call; % elongation; measured here: total intensity read-out; formula for this scale not given here;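 total fluorescence in place of polarization; lower means less elongation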
# Numbers without * were called inactive; nt = not tested or not shown. Rows are unselected; about 1.9% have a hit in one of these screens.
SMILES,Mtb MbtI inh,PV pol inh,PV pol inh intensity,Mtb MenB inh
Cc1ccn(C(=O)c2ccc(Br)cc2)n1,-4,98,100,-13
O=c1cc(-c2ccc3ccccc3c2)[nH][nH]1,nt,99,99,-55
CCCCn1c(CCNC=O)nc2ccccc21,-7,100,102,2
Cc1cc(NC(=O)CSc2ccc3ccccc3c2)no1,-1,103,99,nt
CCCCCCN1C(=O)c2ccc(Br)cc2C1=O,-14,101,104,-11
CCOC(=O)c1ccc2c(c1)N(C)C(=O)c1ccccc1S2,-3,100,103,-10
CCN(CC)C(=O)c1c(NC(=O)c2ccco2)sc2c1CCCCC2,-20,101,102,-4
CC1CCc2c(sc(NC(=O)COn3nnc4ccccc43)c2C(N)=O)C1 (stereo not given),129,105,108,-17
CCC(O)c1nc2ccccc2n1CC1CCCCC1 (stereo not given),15,101,102,-2
Cc1cc(C(=O)NCCC2=CCCCC2)c(C)o1,-8,99,102,-6
C1CNCC(CN2CCCC2)C1 (stereo not given),-2,103,103,46*
Fc1ccc(N=Cc2ccc3ncccc3c2)cc1F,-2,102,95,nt

# Overlap with the part before: 7 entries, followed by the next part.
SMILES,Mtb MbtI inh,PV pol inh,PV pol inh intensity,Mtb MenB inh
CCOC(=O)c1ccc2c(c1)N(C)C(=O)c1ccccc1S2,-3,100,103,-10
CCN(CC)C(=O)c1c(NC(=O)c2ccco2)sc2c1CCCCC2,-20,101,102,-4
CC1CCc2c(sc(NC(=O)COn3nnc4ccccc43)c2C(N)=O)C1 (stereo not given),129,105,108,-17
CCC(O)c1nc2ccccc2n1CC1CCCCC1 (stereo not given),15,101,102,-2
Cc1cc(C(=O)NCCC2=CCCCC2)c(C)o1,-8,99,102,-6
C1CNCC(CN2CCCC2)C1 (stereo not given),-2,103,103,46*
Fc1ccc(N=Cc2ccc3ncccc3c2)cc1F,-2,102,95,nt
COc1ccc(S(=O)(=O)N2CCN(Cc3cccc(F)c3)CC2)c(OC)c1,-15,102,103,-7
CCOc1cc2[nH]c(=S)n(CCC(OCC)OCC)c(=O)c2cc1OCC,-1,101,101,4
Cc1cc(Br)c2c3c(c(N)c(=O)[nH]c13)-c1ccccc1C2=O,-3,65,181,-6
CNc1nc(Oc2ccc(C(=O)OC)cc2)nc(SC)n1,-10,102,102,-30
CSc1nnc2[nH]c(=O)cc(N)n12,12,101,98,5
O=C(O)CC1(CC(=O)N2CCc3ccccc32)CCCC1,-8,103,112,nt
O=S(=O)(/C=C/c1ccccc1)N1CCN(c2nc(-c3cccnc3)nc3ccccc23)CC1,12,105,110,-13
C(=N\NC1=NCCCCC1)/c1ccc(N2CCOCC2)cc1,8,99,101,-3
CCOC(=O)c1nc2ccccc2c(=O)n1/N=C/c1cc(Cl)cc(Cl)c1O,-2,121,142,-35
CCN=c1sc(C(=O)NCCc2ccccc2)cc(=O)n1CC,1,102,99,-20
O=c1[nH]c(C(F)(F)F)nc2c1cnn2Cc1ccccc1,0,101,107,-8
CC(/C=N/N1CCN(c2ccccc2)CC1)=C\c1ccco1,nt,101,101,-16

# Of the compounds above, these have a thiophene ring, fused or not:
SMILES,Mtb MbtI inh,PV pol inh,PV pol inh intensity,Mtb MenB inh
CCN(CC)C(=O)c1c(NC(=O)c2ccco2)sc2c1CCCCC2,-20,101,102,-4
CC1CCc2c(sc(NC(=O)COn3nnc4ccccc43)c2C(N)=O)C1 (stereo not given),129,105,108,-17

# (further entries)
SMILES,Mtb MbtI inh,PV pol inh,PV pol inh intensity,Mtb MenB inh
Cc1ccc(S(=O)(=O)/N=C(/c2ccccc2)N(C)c2ccc(O)cc2)cc1,-4,101,95,-13
O=C(CSc1nc2ccsc2c(=O)n1CC1CCC(C(=O)O)CC1)Nc1nccs1 (stereo not given),-12,103,102,-15
O=C(CSc1nnc(-c2ccc(F)cc2)o1)N1CCCC2CCCCC21 (stereo not given),-8,102,107,-20
CCOC(=O)c1ccc(S(=O)(=O)N(C)C)cc1,nt,97,95,-14
O=C(NCCCN1CCCC1)C1CCN(c2nc3cccnc3s2)CC1,79,101,94,-29
Cc1ccc(C)c(-n2c(Cc3cc(=O)[nH]c(=O)[nH]3)nnc2SCC(=O)Nc2nnc(C)s2)c1,-8,101,104,-33
CC(C)(C)C1CCC(OC(=O)c2cccnc2)CC1 (stereo not given),-3,101,105,5
O=C(NCCSc1ccc(Cl)cc1)c1ccco1,-5,101,102,9
O=C(C1CC1)N1N=C2/C(=C/c3ccc4c(c3)OCO4)CCCC2C1c1ccc2c(c1)OCO2 (stereo not given),34,103,103,-2
Cc1ccnc(SCC(=O)C(C)(C)C)n1,-8,102,96,nt
CCc1[nH]nc(C(=O)O)c1C,27,102,101,7
O=S(=O)(NCC1CCCCC1)c1ccc(-n2cnnn2)cc1,-4,105,100,-22
CC(C)P(=O)(c1c(F)c(F)nc(F)c1F)C(C)C,11,101,102,12
Cc1cc(C)c(C#N)c(SCC(=O)NCCc2c[nH]c3ccccc23)n1,0,98,96,1
O=c1c2ccccc2nnn1CSc1nnc(COc2ccccc2Cl)o1,50,100,98,-22
O=C(O)CN(CC(=O)Nc1ccc2c(c1)OCCCO2)Cc1ccccc1,-7,103,105,-4
CCOC(=O)c1cnn2c(C(F)F)cc(-c3ccc(C)cc3)nc12,42,100,101,-8
CCc1ccc(C2NC(=O)NC3=C2C(=O)CCC3)cc1 (stereo not given),6,101,106,-9
CC(C(=O)Oc1ccc(C#N)cc1)N1C(=O)c2ccccc2C1=O (stereo not given),21,101,93,7
OCC(O)CN=Cc1c(O)[nH]c2ccccc12 (stereo not given),6,99,100,-16
O=C(NCCN1C(=O)S/C(=C\c2cccnc2)C1=O)c1cc(S(=O)(=O)N2CCOCC2)ccc1F,9,104,101,-20
CCN1CCN(c2oc(COc3ccccc3C)nc2C#N)CC1,6,106,105,-23
O=C(O)Cn1cc(C(=O)C2CC2)c2ccccc21,-2,102,101,-11
O=C(Nc1cccc2ccccc12)OC1CCS(=O)(=O)C1 (stereo not given),nt,105,107,-7

# Sorted by number of heavy atoms (highest first): 3 of the compounds above
SMILES,Mtb MbtI inh,PV pol inh,PV pol inh intensity,Mtb MenB inh
O=C(O)CN(CC(=O)Nc1ccc2c(c1)OCCCO2)Cc1ccccc1,-7,103,105,-4
CC(C(=O)Oc1ccc(C#N)cc1)N1C(=O)c2ccccc2C1=O (stereo not given),21,101,93,7
CC(C)P(=O)(c1c(F)c(F)nc(F)c1F)C(C)C,11,101,102,12

# Next section.
SMILES,Mtb MbtI inh,PV pol inh,PV pol inh intensity,Mtb MenB inh
CCOC(=O)C1CCCN(C(=O)Cc2c(C(=O)O)[nH]c3ccccc23)C1 (stereo not given),29,101,104,4
Nc1nncn1C(=O)COc1ccc(Cl)cc1,-4,104,103,-25
O=C(CC(Sc1ccc(Br)cc1)C(=O)O)c1ccc(Cl)cc1 (stereo not given),nt,85*,87*,26
COc1ccccc1NC(=O)NCc1nc(N)n(C(=O)Nc2ccccc2OC)n1,-2,104,111,-6
Cc1ccc(NCn2c(=O)oc3ccccc32)cc1,-5,100,104,4
O=S1(=O)CCC(S(=O)(=O)N2CCCC2)C1 (stereo not given),-3,102,101,-13
O=C(NCCc1ccc(Cl)cc1)c1ccc(-n2cnnn2)cc1,26,106,101,4
COC(=O)C1=C(C)NC(=O)CC1c1ccccc1C (stereo not given),-3,105,111,7
O=C1CC(c2ccccc2)Sc2nc3ccccc3n21 (stereo not given),11,100,102,2
Cc1cc(C)c(NC(=O)CNC2CC(C)(C)NC(C)(C)C2)c(C)c1,-15,103,104,9
CC(CN1CCCC1)OC(=O)c1ccc(F)cc1 (stereo not given),-7,101,103,-36
CSC(=NC(C)(C)C)N/N=C/c1cc(Cl)cc(Cl)c1O,6,100,102,-54
O=C(C1CCN(S(=O)(=O)c2ccccc2F)CC1)N(CC1CCCO1)c1nc2ccccc2s1 (stereo not given),-5,98,102,-9
O=C(CSc1nnc(-c2ccco2)n1Cc1ccccc1)c1ccccc1,-2,105,108,-26
COc1ccc(-c2nnc(SCc3ccc(F)cc3)n2-c2ccccc2)cc1,nt,107,109,-20
Cc1ccc2ncnc(NC3CCCCC3)c2c1,1,102,104,7
C=CCC(CC=C)(NS(=O)(=O)c1ccc(C)cc1)c1ccccc1,nt,101,105,-4
CC1(C)OC(=O)C(=Cc2ccoc2)C(=O)O1,-5,100,105,-11
COc1cc2c(cc1NC(=O)C(C)N1CCc3cc(OC)c(OC)cc3C1)oc1ccccc12 (stereo not given),-2,102,107,-3
O=C(CN1CCN(C2c3ccccc3-c3ccccc32)CC1)c1ccc2c(c1)OCO2,14,104,105,-7
Cc1ccc(S(=O)(=O)c2cnc3ccccc3c2N2CCC3(CC2)OCCO3)cc1C,-9,102,106,-25
COc1nc2c([nH]1)C(c1ccc(OC(C)C)c(OC)c1)C(C#N)=C(N)O2 (stereo not given),nt,101,110,2
Cc1cc(C(F)(F)F)n[nH]1,-8,103,103,-15
O=C(CCc1nc2cccnc2n1Cc1cccs1)NCc1ccccc1,-14,104,140,-18
O=c1c(-c2ccccc2)coc2c(CN3CCCCC3)c(O)ccc12,nt,107,114,4
CCOc1ccc(C(C)C)cc1S(=O)(=O)Nc1ccc(Cl)cn1,1,103,97,-13
C#CCOC(=O)Nc1ccc(OC)nc1,2,102,103,14
Cc1ccc2c(c1)c1c(n2C)C(NC(N)=O)CCC1 (stereo not given),-5,100,101,5
Cn1cccc1Cc1nnc2n1CCCCC2,-15,101,108,3
O=C(Cn1nc(-c2ccc(Cl)cc2)c2ccccc2c1=O)N1CCCC1,-2,104,103,-49
COCc1cc(=O)[nH]c(Nc2nc3ccccc3o2)n1,32,104,108,-22
c1ccc(C2NCCc3[nH]cnc32)cc1 (stereo not given),-3,100,108,-5
COc1cccc2cc(C(=O)N3CCN(CCO)CC3)c(=O)oc12,nt,105,111,-9
CC(C)(C)NC(=O)CCC1=NS(=O)(=O)c2ccccc2N1,1,101,102,10
COC(=O)c1cc(S(=O)(=O)N2CCSC2)oc1C,-9,107,108,-10
O=P1(N2CCC(Cc3ccccc3)CC2)CC=CC1,7,101,103,-13
Cc1cc(C(=O)COC(=O)Cn2cnnn2)c(C)n1-c1cccc(S(=O)(=O)N2CCOCC2)c1,-6,104,109,-24
O=C1CC(C(=O)Nc2ccccc2)N=C(N2CCCCC2)N1 (stereo not given),-7,104,104,-11
NC(=O)c1cc(S(=O)(=O)NCc2cccs2)cs1,-10,101,102,0
Cc1nn(C(=O)C(C)N2C(=O)c3ccccc3C2=O)c(C)c1Br (stereo not given),-5,104,105,-8
O=C(CC12CC3CC(CC(C3)C1)C2)NCC(=O)OCc1nnc(-c2ccc(Br)cc2)o1,-9,106,111,-18
Cc1ccc(CNC(=O)C2CCCN(S(=O)(=O)c3c(C)[nH]c(=O)[nH]c3=O)C2)cc1 (stereo not given),0,102,102,4
Cn1ccnc1SCc1cn2ccsc2n1,-14,106,111,nt
COc1ccc(OCC(O)CNC(=O)Nc2ccccc2)cc1 (stereo not given),-2,103,113,-9
CC(C)c1ccc(/C=C/C(=O)O)cc1,11,100,103,-3
CC(=O)Nc1cc(C(F)(F)F)ccc1N1CCOCC1,2,101,104,13
CN1/C(=C\C(=O)COC(=O)Cc2cn3ccsc3n2)C(C)(C)c2ccccc21,-32,123,148,-30
CCOc1ccccc1NC(=O)CSc1nc2cnn(C)c2c(=O)n1Cc1ccccc1,-13,101,102,-11
CCN1C(=O)c2ccccc2Sc2ccc(NC(=O)NC3CCCC3)cc21,0,104,98,1
Cc1ccc2c(c1)N(C(=O)CN1CCCN(Cc3ccccc3)S1(=O)=O)CCO2,4,100,102,-6
Cc1ccc(-n2nnc3c(SCC(=O)N4CCCC4)ncnc32)cc1,-2,104,103,-10
Nc1c(C(=O)Nc2ccccc2)nnn1Cc1ccccc1,-40,98,105,-6
Cc1ccc(OCC(=O)Nc2sc3c(c2C#N)CC(C)(C)NC3(C)C)cc1,nt,101,101,-11
O=C(NCc1ccc(-c2nc3ccccc3o2)cc1)c1ccccc1Br,-16,102,103,-12
CCNc1ccc(S(=O)(=O)C(F)(F)F)cc1NCC(=O)N1CCCc2ccccc21,-3,148,180,0
Cc1cc(C)cc(NC(=O)c2c(C)noc2C)c1,-12,103,107,-22
COc1ccc2c(c1)-c1ccccc1S(=O)(=O)N2C(C)=O,-29,101,99,nt
CCc1nc2c(cnn2-c2ccc3ccccc3c2)c(=O)[nH]1,18,99,97,nt
N#C/C(=C/c1cn(CC(=O)O)c2ccccc12)c1ccc(C(=O)O)cc1,-13,103,103,-99
CC(C)c1ccc(C(=O)O)c(C(C)C)c1,-12,101,101,-11

# (listing goes on)
SMILES,Mtb MbtI inh,PV pol inh,PV pol inh intensity,Mtb MenB inh
CC(C)CCNC(=O)Nc1ccc2c(c1)N(C)C(=O)CS2,0,106,104,-11
CC(C)CCOc1ccc(C(=O)O)cc1,nt,97,100,-2
CCOC(=O)c1c(CSc2nc(C)ccc2C#N)oc2ccc(OC(C)=O)cc12,nt,108,105,-9
Cc1ccc(O)c(C(=O)c2cc(C#N)c(=O)n(C3CCCCC3)c2)c1,-28,102,110,-11
Cc1ccc2c(c1)c1nnc(SCC(=O)Nc3ccc(N(C)C)cc3)nc1n2CC(=O)O,10,102,100,-12
Cc1nn(C)c(C)c1NC(=O)/C=C/c1ccco1,0,99,104,-11
O=C(c1nsnc1-c1ccccc1O)N1CCCC1,0,101,107,-9
C1CCCN(c2nc3nonc3nc2N2CCCCCC2)CC1,-9,101,102,0
CC(C)c1ccc(NC(=O)N2CCC(N)CC2)cc1,-5,102,104,-6
CCN(CC)C(=S)Nc1ccc(OC)cc1,-11,100,101,-10
CCCCC(CC)CN=C1NS(=O)(=O)c2ccccc21 (stereo not given),nt,96,102,-10
N#Cc1c(NC(=O)COC(=O)c2cccs2)sc2c1CCCCC2,5,103,109,-27
